# Assay outcomes (PubChem)
# Cruzain inh noDet: cruzain (T. cruzi) inhibition without detergent | P25779 | Potency, µM, for the others: max response, negative = inhibition, hits mostly inhibitors | purified cruzain, Z-FR-AMC fluorescence, no detergent | actives 2.3% (n = 200,000);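 note: plate controls were enzyme without inhibitor for no effect and buffer without enzyme for full effect; nearly all actives have a fitted effect of over 40% in size; top concentration of the series not given in the record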
# Target sequence (P25779 123-467 limits assumed): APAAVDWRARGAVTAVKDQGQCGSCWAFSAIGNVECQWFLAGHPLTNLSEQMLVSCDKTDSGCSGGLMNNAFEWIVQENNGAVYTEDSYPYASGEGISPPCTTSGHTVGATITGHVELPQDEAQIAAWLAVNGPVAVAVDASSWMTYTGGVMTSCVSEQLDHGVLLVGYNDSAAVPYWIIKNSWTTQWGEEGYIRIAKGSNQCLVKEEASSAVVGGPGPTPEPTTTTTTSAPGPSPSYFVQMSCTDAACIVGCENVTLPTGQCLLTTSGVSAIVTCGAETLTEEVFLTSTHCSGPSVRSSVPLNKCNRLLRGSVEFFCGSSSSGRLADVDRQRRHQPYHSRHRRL
#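 Detergent-free condition (0.00005% Triton X-100) in acetate buffer pH 5.5 with DTT. 1.5 nM enzyme and compound were pre-mixed 15 min, then 2 uM Z-FR-AMC substrate added; reaction progress from fluorescence change between first and third reads (60 s).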
# Cruzain Triton: blocks cruzain activity in presence of Triton detergent; P25779; purified cruzain, Z-FR-AMC fluorescence, 0.01% Triton; Potency, µM, without a hit: max response, negative = inhibition, usual class: inhibitors; actives 0.43% (n = 200,000);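 note: plate controls were neutral wells for no effect and buffer without enzyme for full effect; nearly all actives have a fitted effect of over 40% in size; top concentration of the series not given in the record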
#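 15 min RT preincubation of 1.5 nM cruzain with compound, then 2 uM Z-FR-AMC added; kinetic AMC fluorescence, 60 s delta. Triton X-100 0.01%, pH 5.5.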
# * hit, by the source's call; ? = inconclusive; & = joins results of further samples. Calls come from the whole dose curve; as a rule, active = well fitted curve in the direction sought with a large enough effect; inconclusive = small, poorly fitted or top-dose-only effect, or another doubt; inactive = no such curve, though single readings can be large; an effect the other way counts as inactive or inconclusive. Potency is the fitted concentration of half-maximal effect. A portion of the library (hit frequency here may not be typical).
SMILES,Cruzain inh noDet,Cruzain Triton
CN[C@@H]1[C@H](O[C@H]2[C@@H](O[C@@H]3[C@@H](O)[C@@H](O)[C@@H](N=C(N)N)[C@@H](O)[C@@H]3N=C(N)N)O[C@@H](C)[C@]2(O)CO)O[C@H](CO)[C@@H](O)[C@@H]1O,0%,-5.0%
COC(=O)C1(C)C=CCN1C(=O)c1ccccc1 (stereo not drawn),-11%,2.7%
COc1ccc2oc(-c3ccc(O)cc3)cc(=O)c2c1,?,-9.7%
O=C(O)CCC[C@H](O)\C=C/C=C/C=C/[C@H](O)C/C=C\CCCCCO,-10%,4.6%
C[C@@]1(C(NS(=O)(=O)c2cccc3cccnc23)c2ccc(-c3ccccc3)cc2)C[C@H]1C1CCCCC1 (stereo partly drawn),?,2.0%
CCCn1c(C)nc2c(NC3CCN(Cc4ccccc4)C3)nc(C)nc21 (stereo not drawn),-2%,-3.9%
O=C(/C=C/c1ccccc1)c1cccs1,-4%,-4.8%
Cc1ccc(S(=O)(=O)NC(=O)NN2C[C@H]3CCC[C@@H]3C2)cc1,-3%,3.2%
CCOCCO,4%,5.0%
C=CCCCC,1%,-5.0%
O=C1OC(c2ccc(O)c(S(=O)(=O)O)c2)(c2ccc(O)c(S(=O)(=O)O)c2)c2c(Br)c(Br)c(Br)c(Br)c21,12%,-21%
CCC/C=C(\CCC)C(NC(=O)c1ccccc1)c1ccc(C(=O)OC)cc1 (stereo not drawn),1%,-5.2%
COC(=O)N1C2(C=CC1(C)C(=O)NCc1ccc(N(C)C)cc1)CCCCC2 (stereo not drawn),0%,3.8%
CCC(Cl)CC(Cl)C(Cl)C(Cl)C(Cl)C(C)Cl (stereo not drawn),-19%,3.8%
COC(=O)C(O)C(O)(CCC(C)C)C(=O)OC1C(OC)=CC23CCCN2CCc2cc4c(cc2C13)OCO4 (stereo not drawn),1%,2.8%
C1CCN2C[C@@H]3C[C@@H](CN4CCCC[C@H]34)[C@H]2C1,-5%,-2.0%
COC(=O)c1ccc(C(/C=C/[C@@H](C)C(=O)NCc2cc(C)n(C)n2)NC(=O)OCc2ccccc2)cc1 (stereo partly drawn),?,-6.1%
Fc1ccc(C2=NCCC(c3ccccc3)O2)cc1 (stereo not drawn),0%,-0.4%
COC(=O)[C@@H](NC(=O)O[C@@H]1C(=O)c2cc(OC)ccc2O[C@H]1c1cccc(OC)c1)C(C)C,-6%,1.0%
Clc1cc(Cl)cc(Cl)c1,-2%,-0.2%
COc1c2c(nc3ccccc13)O[C@H]([C@@](C)(O)CO)C2,2%,0.0%
CC(C)O,9%,2.8%
COC(=O)C1(Cc2ccccc2)C2c3cc(C(=O)N4CCCC4)n(Cc4ccc(OC(F)(F)F)cc4)c3CC2CN1C(=O)c1ccccc1 (stereo not drawn),?,1.3%
CCCCC(C=O)CC (stereo not drawn),0%,3.6%
CC/C=C\C/C=C\C/C=C\C/C=C\C/C=C\C/C=C\CCC(=O)O[C@H](COCCCCCCCCCCCCCCCC)COP(=O)([O-])OCC[N+](C)(C)C,?,1.9%
CCCCc1ccc2nc(NC(=O)OC)[nH]c2c1,-5%,1.9%
CCN(CC)CCCC(C)Nc1nc(C)cc(Nc2ccc3nc(C)cc(N)c3c2)n1 (stereo not drawn),-4%,-4.5%
Cc1nc(N2CCOCC2)c2nc(-c3ccccc3)n(CCCN3CCCCC3C)c2n1 (stereo not drawn),0%,-1.2%
COc1cccc(CS(=O)(=O)c2nnnn2-c2ccc(F)cc2Br)c1,0%,2.3%
CCCCCCCCCCCCCCC[C@@H](O)[C@@H](N)COP(=O)(O)O,-9%,2.5%
CCCC(O)C(CC)CO (stereo not drawn),-3%,-4.7%
CC(C)C[C@@H](CC(=O)N[C@H](CC(=O)N[C@@H]1CCCC[C@H]1C(=O)N[C@H](CC(=O)N[C@@H](CCC(=O)O)CC(=O)O)Cc1c[nH]c2ccccc12)C(C)C)NC(=O)[C@@H]1CCCC[C@H]1N,?,-3.5%
COC(=O)[C@@]1(Cc2ccc(F)cc2)[C@@H]2C(=CC(=O)[C@H]2CC(=O)C(=O)N(C)C)CN1C(=O)c1ccccc1,?,0.9%
CC(C)CC1(C(=O)NCC2CC2)C=CCN1C(=O)c1ccccc1 (stereo not drawn),-1%,1.6%
Oc1ccc2c(c1)OCO2,-5%,-0.5%
O=C1CCCC2CCCCN12 (stereo not drawn),-3%,3.0%
COP(=O)(OC)OC=C(Cl)Cl,0%&-8%,-0.9%&-0.2%
COCCN=C1OC(=O)N2C(=O)C3=C4C(C[C@H]5C(=O)N(CC(=O)OC)C(=O)[C@H]5[C@H]4[C@@]12Cc1ccccc1)[C@H]1C(=O)N(CC(=O)OC)C(=O)[C@H]1[C@H]3C (stereo partly drawn),?,-0.6%
CC[C@H](C)[C@H](NC(=O)OCC1c2ccccc2-c2ccccc21)C(=O)O,-1%,4.6%
CC/C=C\C/C=C\C/C=C\C/C=C\C/C=C\C/C=C\CCC(=O)NCCCC(=O)O,-6%,-1.6%
Cc1ccccc1C1CC(=O)Oc2cc(C)c(Br)c(C)c21 (stereo not drawn),2%,-3.8%
CCCCCCCCCCCCCCCCCCCCCCO,-1%,1.3%
Brc1cccc(-c2ccccc2)c1,0%,0.7%
NCCC[C@@H](CC(=O)N[C@@H]1CCNC[C@H]1C(=O)N[C@H](CC(=O)N[C@@H](CCC(=O)O)CC(=O)O)Cc1c[nH]c2ccccc12)NC(=O)C[C@H](CO)NC(=O)[C@@H]1CNCC[C@H]1N,-7%,0.7%
CCNS(=O)(=O)c1ccc(C)cc1,-4%,4.6%
CCCC/C=C/C(NC(=O)c1cccs1)c1ccccc1 (stereo not drawn),-6%,-1.0%
CC(C)OC(=O)[C@@H]1CC[C@H](C)[C@@H](CCCCO)O1,-4%,0.2%
CCC[C@H]1C(=O)N2C(N(C)C)=Nc3ccc(C)cc3N2C1=O,-7%,-0.1%
O[C@@H]1[C@@H]2c3cc4c(cc3CN3CCC(=C[C@@H]1O)[C@H]23)OCO4,2%,-1.3%
COc1cc(C2CC(=O)Oc3c(C(C)C)ccc(C)c32)cc(OC)c1OC (stereo not drawn),-1%,-1.8%
c1ccc(N=NNc2ccccc2)cc1,-19%,-2.2%
CC1=C(/C=C/C(C)=C/C=C/C(C)=C/C=O)C(C)(C)CCC1,16%,-11%
CCC(=O)O[C@@](Cc1ccccc1)(c1ccccc1)[C@@H](C)CN(C)C,-15%,-4.5%
C/C=C(/C)C#N,10%,7.2%
C[C@@H](C(=O)N[C@@H](CO)Cc1ccccc1)[C@H]1C[C@]1(C)[C@H](NC(=O)OCc1ccccc1)c1ccccc1,?,-6.5%
CCC/C=C(\CCC)C(NS(=O)(=O)CC12CCC(CC1=O)C2(C)C)c1ccc(C(=O)OC)cc1 (stereo not drawn),10%,-11%
CC(C)Cn1nnnc1S(=O)(=O)Cc1cccc(C#N)c1,-1%,2.8%
COC(=O)c1ccc(C(NC(=O)OCc2ccccc2)/C(C)=C/[C@@H](C)C(=O)NC2CCCCC2)cc1 (stereo partly drawn),-1%,-0.4%
CC(C)[C@@H](CC(=O)N[C@@H]1CCNC[C@H]1C(=O)N[C@H](CC(=O)N[C@@H](CCC(=O)O)CC(=O)O)Cc1c[nH]c2ccccc12)NC(=O)C[C@H](CO)NC(=O)[C@@H]1CNCC[C@H]1N,7%,1.0%
CC(C)CON=O,-7%,2.0%
# (listing goes on)
SMILES,Cruzain inh noDet,Cruzain Triton
Cc1cccc(C)c1,-2%,1.8%
Cl/C=C/CCl,-1%,2.2%
COCC1C2CC[C@H]3C(OCc4ccc(F)cc4C(F)(F)F)OC[C@]4(C)[C@H]3C2=C(CN4C(=O)OC(C)(C)C)[C@H](C)C1COC (stereo partly drawn),?,-6.0%
O=C(O)/C=C\c1ccc(Cn2ccnc2)cc1,-10%,1.5%
CCCCCCCN,1%,4.4%
CCC1OC(=O)C(C)[C@@H](O[C@H]2C[C@@](C)(OC)C(O)C(C)O2)C(C)[C@@H](O[C@@H]2OC(C)CC(N(C)C)C2O)[C@@](C)(O)CC(C)C(=O)[C@@H](C)C(O)[C@]1(C)O (stereo partly drawn),0%,-1.9%
NC[C@@H]1O[C@H](O[C@@H]2[C@H](O[C@@H]3O[C@H](CO)[C@@H](COC[C@H]4O[C@@H](CN)[C@@H](O)[C@@H](O)[C@@H]4N)[C@@H]3O)[C@@H](O)[C@@H](N)C[C@H]2N)[C@@H](N)[C@H](O)[C@@H]1O,-5%,-4.1%
CCCCC/C=C\C/C=C\C/C=C\CCCCC(N)=O,-7%,-2.4%
N#CC(C#N)=NNc1cccc(Cl)c1,13µM*,11µM*
C=CCC1(O)CCOc2ccccc21 (stereo not drawn),4%,0.8%
CN1C[C@@H](C(=O)N[C@@]2(C)O[C@]3(O)C4CCCN4C(=O)[C@@H](Cc4ccccc4)N3C2=O)C=C2c3cccc4[nH]cc(c34)C[C@@H]21 (stereo partly drawn),?,-3.3%
CN(C)/N=N\c1nc[nH]c1C(N)=O,-8%,-4.2%
COC(=O)[C@@]1(Cc2ccccc2)[C@H]2c3cc(C(=O)N4CCCC4)n(Cc4nc5ccccc5[nH]4)c3C[C@H]2CN1C(=O)c1ccccc1,?,0.0%
N#CCCCS(=O)(=O)c1ccccc1,-5%,1.5%
CCCC(C)(COC(N)=O)COC(N)=O,5%,3.3%
CCCC[C@@H](NC(=O)[C@@H](Cc1cn(C(=O)OC)c2ccccc12)NC(=O)[C@H](CC(C)(C)C)NC(=O)N1[C@H](C)CCC[C@@H]1C)C(=O)O,?,1.5%
CCc1c2c(nc3ccc(OC)cc13)OC(C)C2 (stereo not drawn),-2%,-0.8%
Clc1ccccc1,1%,4.2%
O=C(Cl)OCc1ccccc1,-6%,-0.1%
OCC(O)[C@H]1O[C@@H]2O[C@H](C(Cl)(Cl)Cl)O[C@@H]2[C@H]1O (stereo partly drawn),2%,1.6%
CCC1=C(OC(=O)N(CC)CC)N2C(=O)OC(=NCC3CC3)[C@]2(C)[C@H]2C1=CC[C@H]1C(=O)N(c3ccccc3)C(=O)[C@H]12,?,-1.1%
COC(=O)[C@@]1(C)C=C[C@@H](Cc2ccccc2)N1C(=O)c1ccccc1,-5%,-3.6%
COC(=O)[C@@]1(Cc2ccccc2)[C@@H]2[C@@H](CC(=O)[C@H]2CC(=O)C(=O)N(C)C)CN1C(=O)c1ccccc1,?,0.1%
COc1ccc2c(c1)C(=O)[C@@H](OC(=O)NC1CCCC1)[C@H](c1ccc(OC)c(Br)c1)O2,-12%,0.7%
CCCC[C@@H]1C[C@H]1C(NC(=O)c1ccccc1)c1ccc(-c2ccccc2)cc1 (stereo partly drawn),-3%,-3.4%
COc1ccc2cc(C(C)CO)ccc2c1 (stereo not drawn),3%,-1.1%
CC(C)[C@@H](CC(=O)N[C@@H]1CCNC[C@H]1C(=O)N[C@H](CC(=O)N[C@@H](CCC(=O)O)CC(=O)O)Cc1ccccc1)NC(=O)C[C@H](Cc1ccccc1)NC(=O)[C@@H]1CNCC[C@H]1N,-1%,-0.3%
CCCCNC(=O)C(c1ccc(OCC(=O)OC)c(C(=O)OC)c1)N(Cc1ccccn1)C(=O)CCCCCN1C(=O)NC(c2ccc(-c3ccccc3)cc2)C(C(=O)OCc2ccccc2)=C1C (stereo not drawn),8%,-5.5%

# Looked up by compound from above:
SMILES,Cruzain inh noDet,Cruzain Triton
CCc1c2c(nc3ccc(OC)cc13)OC(C)C2 (stereo not drawn),-2%,-0.8%
Clc1ccccc1,1%,4.2%
COC(=O)[C@@]1(Cc2ccccc2)[C@@H]2[C@@H](CC(=O)[C@H]2CC(=O)C(=O)N(C)C)CN1C(=O)c1ccccc1,?,0.1%

# Of the compounds above, 8 contain an aryl methoxy group.
SMILES,Cruzain inh noDet,Cruzain Triton
COc1ccc2oc(-c3ccc(O)cc3)cc(=O)c2c1,?,-9.7%
COC(=O)[C@@H](NC(=O)O[C@@H]1C(=O)c2cc(OC)ccc2O[C@H]1c1cccc(OC)c1)C(C)C,-6%,1.0%
COc1c2c(nc3ccccc13)O[C@H]([C@@](C)(O)CO)C2,2%,0.0%
COc1cccc(CS(=O)(=O)c2nnnn2-c2ccc(F)cc2Br)c1,0%,2.3%
COc1cc(C2CC(=O)Oc3c(C(C)C)ccc(C)c32)cc(OC)c1OC (stereo not drawn),-1%,-1.8%
CCc1c2c(nc3ccc(OC)cc13)OC(C)C2 (stereo not drawn),-2%,-0.8%
COc1ccc2c(c1)C(=O)[C@@H](OC(=O)NC1CCCC1)[C@H](c1ccc(OC)c(Br)c1)O2,-12%,0.7%
COc1ccc2cc(C(C)CO)ccc2c1 (stereo not drawn),3%,-1.1%
